Sa ugtP lethal: kills S. aureus RN4220 lacking UgtP | 330,000 tested, 0.54% active | growth inhibition, % (test concentration not listed) | S. aureus RN4220 ugtP deletion, OD600 growth, 16 h; some inactives read as strong as hits;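 active means z-score under -3 and OD600 up to 0.15 on both plates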;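 further: plate controls were untreated wells for no effect and antibiotic for full effect; wells of about 80 µL received 100 nL stock; the first replicate is given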
PrP UTR inh: suppresses PrP 5' UTR mRNA reporter expression. inhibition, % (no concentration beside the values). cell-based PrP 5' UTR mRNA reporter, plate reader. AID 488862. 340,000 tested, 0.35% active;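 active means every replicate at 50% or more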;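 further: 0 = median of the neutral control wells; tested in H4 reporter cells; numbers are from one replicate; inactives centre near -14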
Mtb hypoxia rep: inhibitors of hypoxia-regulated fluorescent reporter in Mycobacterium tuberculosis; M. tuberculosis hypoxia-regulated fluorescent reporter, fluorescence; fluorescence inhibition, % (test concentration not listed); 300,000 tested, 0.1% active; AID 1159583;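 active means 35 to 45% if threefold the growth effect, above 45% if 1.5-fold the growth effect; inactive means the rest, general growth blockers included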;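 further: wells of about 50 µL received 100 nL stock; 0% = vehicle wells and 100% = reference inhibitor wells; whole bacteria with a GFP reporter of the hypoxia response; strong numbers were not always called active; many hits fall short of the cut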
Autofluor counter: counter-screen for toxin protease inhibitors: compound fluorescence | compound autofluorescence counterscreen, microsphere flow cytometry; hits give high values | fluorescence intensity (test concentration not listed) | 360,000 tested, 3.1% active | AID 624483;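 active means at least 3 SD above the mean of all compounds, about 16000 in these data; inconclusive means too few beads counted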;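 further: 100 nL of 1 mM stock went into each well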
BJeLR lethal: BJeLR cell viability loss; inhibition, % (test concentration not listed); 300,000 tested, 0.17% active; BJeLR (HRASV12) viability, CellTiter-Glo ATP luminescence, 48 h; reference of the scale not given here; AID 1554;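 active means replicate mean above 50%; inconclusive means above 50% but judged a plate artefact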;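 further: 50 nL library stock added to about 25 µL; numbers are from one replicate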
Sa RN4220 lethal: S. aureus RN4220 growth inhibition; inhibition, % (test concentration not listed); 330,000 tested, 0.33% active; OD600, 16 h; AID 1259311;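 active means z-score of -3 or lower and OD600 up to 0.18 on both plates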;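 further: plate controls were untreated cells for no effect and reference antibiotic for full effect; stock transfer was 100 nL into about 80 µL; one replicate is shown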
Mtb hypoxia rep growth: also measured in Mtb hypoxia rep; calls as there; growth inhibition, %; measured here: M. tuberculosis growth (absorbance);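 0% = vehicle and 100% = reference antibiotic; read after six days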
Numbers without * were called inactive; ? = inconclusive; · = no result given.

SMILES	Sa ugtP lethal	PrP UTR inh	Mtb hypoxia rep	Mtb hypoxia rep growth	Autofluor counter	BJeLR lethal	Sa RN4220 lethal
CC(/C=C(\C)Nc1ccccc1)=Nc1ccccc1	12	-5	9	4	3680	1	6.1
CN(Cc1ccccc1)C(=O)COC(=O)C1CCN(S(=O)(=O)c2ccc(Cl)c(C(F)(F)F)c2)CC1	-4	-11	2	3	?	0	4.3
CSc1ccc(C(=O)C2CCCN(C(=O)CCc3cnn(C)c3)C2)cc1 (stereo not given)	3	-12	5	8	5537	5	1.4
CC(=O)N1N=C(c2ccc3ccccc3c2)OC1(C)C	6	-8	9	-3	10961	-9	13
COc1ccc(C2CC(=O)C=C(c3ccc(NC(C)=O)cc3)C2)cc1OC (stereo not given)	2	·	12	10	·	·	9.0
Cc1nnc(SCC(=O)N2CCN(c3ccccc3F)CC2)n1C1CC1	2	-21	7	4	4825	·	3.0
COc1cc(C(=O)O)cc(NC(=O)c2cccs2)c1OC	4	1	5	0	1900	1	9.3
COC(=O)c1ccc2c(=O)n(Cc3ccc(C(=O)NCCCN4CCOCC4)cc3)c(=S)[nH]c2c1	20	-15	6	-8	4935	8	7.6
CN=c1sc2ccccc2n1CC(O)c1ccccc1 (stereo not given)	0	-26	-6	-11	3940	4	4.5
CCc1cc2cc(C)cc(C)c2nc1SCC(=O)N1CCCC1	2	-2	·	·	4419	·	1.6
CC(C)OCC(O)CCc1n[nH]c(=S)n1-c1ccccc1 (stereo not given)	8	-8	-6	-4	2417	3	-3.6
COc1ccc(S(=O)(=O)N2CCOCC2)c(C)c1C	5	-19	13	6	10343	-5	5.3
CCC(C)C(=O)Nc1nc2ccc(S(C)(=O)=O)cc2s1 (stereo not given)	2	-15	3	1	4234	1	4.5
CCOC(=O)C1(Cc2ccccc2C(F)(F)F)CCN(C(=O)c2cc(C(C)=O)n[nH]2)CC1	-4	-21	7	5	2302	-16	11
CC(C)(C)NC(=S)N1CCn2cccc2C1c1cccnc1 (stereo not given)	2	-7	11	2	4243	-4	1.5
COCCOC(=O)c1c(C)oc2ccc(OCC=C(C)C)cc12	45	-2	4	10	5586	4	2.3
O=C(Cn1nc2n(c1=O)-c1ccccc1SC2)N/N=C/c1cccs1	·	-37	·	·	2996	2	·
CCC(CC)c1nnc(NC(=O)Cc2cccs2)s1	6	-14	9	5	4329	-6	6.3
C=C(C)CSc1nnc(-c2ccc(OC)c(OC)c2)n1N	7	8	9	2	15658	-19	6.1
Cc1n[nH]c(C)c1CCC(=O)NN=Cc1cccc([N+](=O)[O-])c1	4	·	-10	-7	·	·	2.9
O=C(O)CNC(=O)c1ccccc1F	4	-21	4	11	3386	-3	3.8
CC(=NN=C1SC(CC(=O)O)C(=O)N1c1ccccc1)c1ccc(C)cc1 (stereo not given)	8	·	7	2	·	·	4.3
COc1ccc(N2C(=NC(=O)C3CCCO3)SC3CS(=O)(=O)CC32)cc1 (stereo not given)	-1	-5	-4	-3	5628	1	-0.4
CCn1c(=NC(=O)c2ccco2)sc2cccc(F)c21	2	-30	·	·	5636	-6	17
COc1ccccc1CNC(=O)c1cc(-c2ccccc2)nn1CC1CC(c2cccc([N+](=O)[O-])c2)=NO1 (stereo not given)	3	-30	7	12	3097	-1	-1.0
Cc1ccc(C(=O)Cn2c3[n+](c4ccccc42)CC(O)CS3)cc1 (stereo not given)	4	-9	16	10	4303	-2	7.0
CNC1(c2nnnn2-c2ccccc2C)CCOC(C)(C)C1 (stereo not given)	8	-11	15	2	4997	5	5.4
Nc1c(C(O)(C(F)(F)F)C(F)(F)F)ccc2ccccc12	-21	-18	0	-1	17206*	5	4.8
Cc1[nH]nc2c1C(c1ccc(F)cc1)C(C#N)=C(N)O2 (stereo not given)	9	-24	·	·	2676	4	-3.2
CCOC(=S)NC(=NS(=O)(=O)c1ccccc1)c1ccccc1	4	·	0	4	·	·	4.5
CS(=O)(=O)NCCNc1ncc(C(F)(F)F)cc1Cl	5	-8	5	1	4607	-1	4.9
CCC(C)NC(=O)c1ccc(CSCc2ccccc2Cl)o1 (stereo not given)	0	-4	1	-4	4141	-2	3.1
CCOC(=O)c1c(NC(=O)CN2C(=O)NC3(CCC(C)CC3)C2=O)sc(C)c1CC (stereo not given)	2	-23	12	-2	6237	11	5.5
COc1ccc(S(=O)(=O)N(C)c2ccc(C(=O)NCC3CCCO3)cc2)cc1 (stereo not given)	-2	-21	-2	11	4508	-3	-0.9
O=C(Nc1ccc2c(c1)OCO2)Nc1cnccn1	13	-26	5	0	21245*	-2	3.7
COc1ccccc1N1CCN(c2ccc([N+](=O)[O-])cc2Cl)CC1	0	-14	-1	5	1887	4	2.9
Cc1ccc(S(=O)(=O)Nc2ncnc3sccc23)cc1C	5	-22	6	9	8246	·	2.5
O=C(CCc1nc2ccccc2n1-c1ccccc1)NCCO	0	-3	5	-2	9419	-15	2.0
Clc1ccc(N(CC2CO2)CC2CO2)cc1 (stereo not given)	-3	-31	18	9	?	·	3.0
CCC(CC)C(=O)Nc1ccc(-c2cn3cccnc3n2)cc1	-4	-21	11	-4	3103	0	1.8
CCCCC(=O)Nc1ncc(Br)s1	-2	-1	1	6	21554*	7	-1.5
CCOc1ccc(C(=O)CCC(=O)NC(CC(C)C)C(=O)OC)cc1 (stereo not given)	7	-14	18	9	4351	-6	4.6
CC(C)CCNC(=O)NC(=O)CSc1ccc(S(=O)(=O)N2CCOCC2)cn1	11	-5	-1	1	3525	·	5.8
Cc1ccccc1C(=O)NC1CCN(CC(=O)Nc2c(C)cccc2C)CC1	-8	-4	0	8	3683	-9	-2.2
C[C@@]12C(=O)Nc3ccccc3C(=O)N1C1c3cc(Cl)ccc3OCC1C2c1ccccc1 (stereo not given in full)	1	·	-3	1	·	·	-10
CCN(C(=O)CSC1=Nc2ccccc2C2CC=NN12)C1CCS(=O)(=O)C1 (stereo not given)	2	-21	10	13	4416	2	-0.4
Cc1ccc(C(=O)NN=Cc2ccc(-c3cccc(C(F)(F)F)c3)o2)cn1	0	·	7	14	·	·	2.5
NC(Cc1ccc(O)cc1)c1cn([C@@H](CCC(=O)O)C(=O)N2CCNCC2)nn1 (stereo not given in full)	·	64*	·	·	2811	-3	·

A second format for part of the listing above.
mol: Cc1ccc(C(=O)NN=Cc2ccc(-c3cccc(C(F)(F)F)c3)o2)cn1
  Sa ugtP lethal: 0 | PrP UTR inh: · | Mtb hypoxia rep: 7 | Mtb hypoxia rep growth: 14 | Autofluor counter: · | BJeLR lethal: · | Sa RN4220 lethal: 2.5
mol: C[C@@]12C(=O)Nc3ccccc3C(=O)N1C1c3cc(Cl)ccc3OCC1C2c1ccccc1 (stereo not given in full)
  Sa ugtP lethal: 1 | PrP UTR inh: · | Mtb hypoxia rep: -3 | Mtb hypoxia rep growth: 1 | Autofluor counter: · | BJeLR lethal: · | Sa RN4220 lethal: -10
mol: Cc1ccc(S(=O)(=O)Nc2ncnc3sccc23)cc1C
  Sa ugtP lethal: 5 | PrP UTR inh: -22 | Mtb hypoxia rep: 6 | Mtb hypoxia rep growth: 9 | Autofluor counter: 8246 | BJeLR lethal: · | Sa RN4220 lethal: 2.5
mol: NC(Cc1ccc(O)cc1)c1cn([C@@H](CCC(=O)O)C(=O)N2CCNCC2)nn1 (stereo not given in full)
  Sa ugtP lethal: · | PrP UTR inh: 64* | Mtb hypoxia rep: · | Mtb hypoxia rep growth: · | Autofluor counter: 2811 | BJeLR lethal: -3 | Sa RN4220 lethal: ·

More compounds:
SMILES	Sa ugtP lethal	PrP UTR inh	Mtb hypoxia rep	Mtb hypoxia rep growth	Autofluor counter	BJeLR lethal	Sa RN4220 lethal
CCOc1ccc(NS(=O)(=O)c2ccc(C)c(C(N)=O)c2)cc1	5	-8	-11	9	3848	5	0.1
Cc1ccc2c(c1)N(CCC(=O)N1CCC3(CC1)OCCO3)C(=O)CO2	-1	-5	0	6	22602*	-8	-1.7
Cc1ccc(OCc2n[nH]c(=S)n2C2CCCCC2)cc1	18	-25	9	11	10540	-2	3.0
c1ccc(-c2noc(CN3CCOCC3)n2)cc1	11	-26	10	5	4582	-4	1.5
Cc1cc(NC(=O)COC(=O)c2c(C)nn(Cc3ccccc3)c2C)no1	-4	-17	6	4	3448	-3	2.5
CCOC(=O)C1CCCN(C(=O)CN2C(=O)/C(=C/c3ccc(OC)cc3)Oc3ccccc32)C1 (stereo not given)	6	-18	0	6	2185	-1	8.4
Cc1nnc(NC(=O)CSC2=NN3CCCC(=O)N=C3S2)s1	7	-17	0	8	4776	-8	3.6
Brc1ccc2c(c1)[C@H]1OCC[C@H]1[C@@H](c1cccs1)N2	1	-31	8	13	4623	10	0.7
COCC(=O)N1CCC(Oc2ccc(C(=O)NC3Cc4ccccc4C3)cc2)CC1	0	-27	15	7	6199	0	0.5
CCOC(=O)C1CCN(c2ncnc3nc[nH]c23)CC1	11	-7	6	4	5649	9	6.5
[O-]/[N+](=C/c1ccc(F)cc1)c1ccccc1	0	-34	11	10	9567	-15	8.2
Fc1ccc(N2CCN(c3ncnc4nc[nH]c34)CC2)cc1	5	-10	-1	3	6024	-3	4.4
Fc1ccccc1-c1n[nH]c(=S)n1CC1CCCO1 (stereo not given)	0	-39	9	3	3970	-5	1.2
CC/C(C)=N/Nc1nc2sc3c(c2c(=O)[nH]1)CC(C)(C)OC3	·	-21	·	·	3174	4	·
CC1CN(S(=O)(=O)c2ccc(C(=O)NN3CCN(C)CC3)cc2)CC(C)O1 (stereo not given)	4	-2	-11	-5	2033	5	4.7
C=CCN(C(=O)c1csnn1)C(C(=O)NC1CCCC1)c1c(F)cccc1Cl (stereo not given)	10	-6	-6	7	4272	-10	-1.0
CC(NC(=O)Nc1ccc(F)cc1F)c1ccncc1 (stereo not given)	2	-9	6	11	10339	6	2.6
CNC(CC(=O)O)C(=O)O (stereo not given)	10	·	1	10	·	·	8.5
CC(C)C(=O)N(Cc1ccc(F)cc1)Cc1nc2ccccc2c(=O)[nH]1	4	0	8	4	4536	0	6.0
COCCNC(=S)Nc1cc(S(=O)(=O)N2CCOCC2)ccc1N1CCCCC1	5	2	9	8	3389	-3	7.5
Cc1cc(C)n(C(C)CC(=O)Nc2ccc(-c3ccno3)cc2)n1 (stereo not given)	12	-6	10	4	4632	-1	5.1
Cc1ccnc(NC(=O)Cc2c(F)cccc2Cl)c1	1	8	7	-2	·	-1	1.3
CN(C)c1ccc(NC(=O)COC(=O)CNC(=O)c2cccs2)cc1	-1	-26	6	-4	7100	·	2.8
O=C(COC(=O)Cc1ccc(Cl)cc1Cl)Nc1ccc(OC(F)F)cc1	6	-19	10	1	2145	-16	11
COc1ccc(C(=O)NCCCc2nc3ccccc3n2Cc2ccccc2C)cc1OC	8	-7	2	4	5781	4	1.9
COc1ccccc1NC(=O)C1=C(C)Nc2ncnn2C1c1cccs1 (stereo not given)	-1	-3	12	13	2670	-1	-7.1
COc1ccc(NC(=O)CN2CCc3ccccc3C2)cc1S(=O)(=O)N1CCOCC1	-2	-1	6	14	2489	-4	3.1
NS(=O)(=O)c1ccc(N=Nc2c(O)[nH]c(=S)[nH]c2=O)cc1	·	-11	·	·	4503	9	·
Cn1c(C(=O)NCCCN2CCN(c3cccc(Cl)c3)CC2)cc2c(=O)n(C)c3ccccc3c21	3	3	·	·	6300	-5	2.2
CC1(c2ccc(Cl)cc2Cl)NC(=O)N(CC(=O)N2CCN(C(=O)c3ccco3)CC2)C1=O (stereo not given)	0	1	11	2	3205	·	1.8
COC(=O)CN(c1ccccc1F)S(=O)(=O)c1ccc(C)cc1	2	-22	2	20	3976	-5	6.4
COC(=O)c1cc(OC)cc(O)c1C(=O)c1c(O)cc(C)cc1O	2	-15	·	·	4220	-8	8.7
CCc1ccc(C2C(C#N)=C(N)SC(N)=C2C#N)s1	-6	-35	5	7	11752	1	7.1
CC(C)c1ccc(NC(=O)CN2C(=O)NC3(CCCC3)C2=O)cc1	9	-28	0	4	3653	-7	4.7
COc1ccc(/C(C)=N\O)cc1OC	·	-25	·	·	5485	-8	·
O=C(OCC(=O)N1CCc2ccccc2C1)c1ccc(F)cc1Cl	11	-33	17	11	2939	·	7.4

Whole records as entered above:
CCOC(=O)C1CCN(c2ncnc3nc[nH]c23)CC1 in the list: Sa ugtP lethal = 11; PrP UTR inh = -7; Mtb hypoxia rep = 6; Mtb hypoxia rep growth = 4; Autofluor counter = 5649; BJeLR lethal = 9; Sa RN4220 lethal = 6.5
Cc1cc(NC(=O)COC(=O)c2c(C)nn(Cc3ccccc3)c2C)no1 in the list: Sa ugtP lethal = -4; PrP UTR inh = -17; Mtb hypoxia rep = 6; Mtb hypoxia rep growth = 4; Autofluor counter = 3448; BJeLR lethal = -3; Sa RN4220 lethal = 2.5

Source: PubChem
